VACV mCherry inh – qHTS for Stage-Specific Inhibitors of Vaccinia Orthopoxvirus: mCherry Reporter Primary qHTS. Vaccinia virus mCherry reporter infection, fluorescence; about a quarter of the inactives have no number. Potency, µM (highest dose often 36.5 µM), for inactives: at the top dose activity change, negative = inhibition, actives largely listed as inhibitors. actives 0.63% (n = 310,000). AID 720579, 2013; active = well fitted inhibition curve with a large enough effect; inconclusive = small, poorly fitted or top-dose-only effect; inactive = no such curve, though single readings can be large or run the other way; tested in A549 cells; further: nearly all actives have a fitted effect of over 35% in size; inactives centre near -10
Vaccinia Venus – qHTS for Stage-Specific Inhibitors of Vaccinia Orthopoxvirus: Venus Reporter Primary qHTS; Vaccinia virus Venus reporter expression, fluorescence; actives 0.46% (n = 330,000); Potency, µM (doses to about 36.5 µM), for inactives: top-dose activity change, negative = inhibition, usual class: inhibitors; active means well fitted inhibition curve with a large enough effect; inconclusive means small, poorly fitted or top-dose-only effect; inactive means no such curve, though single readings can be large or run the other way; tested in A549 cells; further: nearly all actives have a fitted effect of over 30% in size; inactives centre near -10
An asterisk follows results filed as active; i = inactive; ? = inconclusive; nt = not tested or not shown; & = joins results of further samples; [ ] = another dose, or the depositor's remark. On the % scale 0 is the no-effect control and ±100 the full control effect; potency means the concentration at half of the fitted maximal effect.

Every second line gives: VACV mCherry inh	Vaccinia Venus
CCN(C(=O)COC(=O)/C=C/c1cccc([N+](=O)[O-])c1)c1ccccc1
    -11.4%	5.1%
CCc1ccc(-c2cc3c(=O)n(CC(=O)N4CCCCCC4)nc(C)n3n2)cc1
    -4.4%	2.8%
Cc1cc(C=O)c(C)c2c1[nH]c1ccccc12
    -11.4%	-18.5%
COc1ccc(C(=O)N(C)CCOc2ccc(Cl)cc2)cc1S(=O)(=O)N1CCCC1
    ?	?
Cc1ccc(CNC(=O)c2cc(-c3ccccc3)nn2CC2CC(c3cccnc3)=NO2)cc1 (centres undefined)
    -14.0%	-9.7%
Cc1ccc2c(c1)[C@@H](O)C[C@@H](C)N2N=O
    -6.3%	-5.9%
O=C1C2C3C=CC(C3)C2C(=O)N1c1n[nH]c(-c2cccnc2)n1 (centres undefined)
    -9.2%	11.1%
CC(=O)NS(=O)(=O)c1cccnc1Nc1ccc(Cl)cc1
    -11.9%	-10.3%
COc1ccc(Nc2nc3ccccc3nc2NS(=O)(=O)c2ccc(C)cc2)c(OC)c1
    -2.2%	-9.5%
O=C(NCc1ccc(Cl)cc1)c1ccc2c(Cl)c3c(nc2c1)CCCC3
    -13.9%	-15.2%
C[C@@]1([C@@H](NC(=O)c2cccs2)c2ccc(-c3ccccc3)cc2)C[C@H]1C1CCCCC1
    -8.9%	-3.5%
Cc1ccc(N2C(=O)C3C(C2=O)C(C(=O)c2ccc(Cl)cc2)N2CCCC32)cc1 (centres undefined)
    -11.6%	-6.4%
Cc1c(Cl)cccc1NC(=O)NN1CCN(C)CC1
    -16.0%	-1.1%
COC(=O)c1cc(C)nc(N)c1C#N
    -12.1%	-2.0%
CC(C)CN1CCC(=O)N([C@H](CSc2ccccc2)Cc2ccccc2)CC1
    -3.5%	-13.7%&-17.0%
COC(CNS(=O)(=O)c1ccc(S(=O)(=O)N2CCCC2)cc1)OC
    -5.2%	-12.4%
COc1ccc(-c2noc(-c3cccc(OC)c3OC)n2)cc1OC
    i	-7.0%
COC(=O)NNC(=O)C(c1ccccc1)c1ccccc1
    -15.6%	-4.1%
Cc1cc(OCC(=O)OCC(=O)Nc2cc(S(=O)(=O)N3CCOCC3)ccc2Cl)ccc1Cl
    i	-3.1%
O=C(CCCC(=O)Nc1cccnc1)Nc1cccnc1
    nt	-19.7%

The list goes on.
Every second line gives: VACV mCherry inh	Vaccinia Venus
Cc1ccc(-n2nc3c(c2NC(=O)c2c(F)cccc2Cl)CS(=O)(=O)C3)cc1C
    i	-16.3%
COC(=O)C1CC(O)CN1S(=O)(=O)c1cccs1 (centres undefined)
    i	-15.9%
CC(C)C(NS(=O)(=O)c1ccccc1)C(=O)OCc1cc([N+](=O)[O-])cc2c1OCOC2 (centres undefined)
    i	-13.9%
CC(C)n1cnc(S(=O)(=O)N2CCCC(C(=O)NCc3ccccc3Cl)C2)c1 (centres undefined)
    3.4%	-0.3%
O=c1ccc2cc(S(=O)(=O)NCc3ccccc3)ccc2[nH]1
    i	-12.9%
COc1cc2c(cc1OC)C(C(=O)NC(C)C)C1CCCCN1C2=O (centres undefined)
    i	-2.8%
COc1ccc(C2c3ccc4ccccc4c3Oc3ncn(CCCO)c(=N)c32)cc1 (centres undefined)
    -18.9%	?
Cc1ccc(NC(=O)CCCn2c3ccccc3c(=O)c3cc(C)ccc32)c(Br)c1
    -8.7%[7.34 µM]	-15.4%[7.34 µM]
Cc1cccc(Nc2c(-c3ccsc3)nc3nc(C)cc(C)n23)c1
    -25.2%	-8.3%
COc1ccc(/C=N/NC(=O)c2ccncc2)cc1Cn1nc([N+](=O)[O-])c(Br)c1C
    -11.6%	-4.3%
Cc1ccc(C(=O)Nc2ccccc2C(=O)N2CCCCCC2)cc1
    i	-13.5%
CC(=O)NC(CCS(C)(=O)=O)C(=O)Nc1ccc2c(c1)OCO2 (centres undefined)
    ?	-9.7%
CN1C(=O)Cc2cc(S(=O)(=O)NCCc3ccccc3)ccc21
    ?	5.5%&4.8%
CC(C)n1c2ccccc2c2cc([N+](=O)[O-])ccc21
    -20.9%	-15.4%
CCCC1NC(=O)c2cccnc2-n2c1nc1cc(F)c(F)cc1c2=O (centres undefined)
    i	-11.6%
COc1ccc(-c2ccc(CO)o2)cc1N
    -1.3%	-3.9%
CCCCN(CCCC)CCCNC(=O)CC1Oc2ccc(C)cc2NC1=O (centres undefined)
    -7.7%	-6.2%
CCOc1ccccc1N(CC(=O)NCc1ccccc1)C(=O)CCC(=O)Nc1cc(C)ccn1
    -0.9%	-1.9%
O=[N+]([O-])c1ccccc1N/N=C\c1ccccc1F
    -0.9%	-1.7%
COc1ccccc1NC(=O)N1CCN(c2ccnc3cc(Cl)ccc23)CC1
    ?	-20.2%

Going on with the list:
Every second line gives: VACV mCherry inh	Vaccinia Venus
COc1cccc(-n2nnnc2SCC(=O)Nc2ccc(NC(C)=O)cc2)c1
    -14.4%	-15.3%
COC(=O)c1cc(C(=O)OCC(=O)N(C)C2CCS(=O)(=O)C2)cc([N+](=O)[O-])c1 (centres undefined)
    -5.5%	2.4%
NC(=O)CC(NC(=O)c1ccccc1)c1ccc(N2CCCCCCC2)c([N+](=O)[O-])c1 (centres undefined)
    i	-17.4%
Cc1cccc(N2CCN(C(=O)CCSCc3ccccc3F)CC2)c1C
    7.3%	-2.2%
COc1ccc(/C(O)=C2\C(=O)C(=O)N(c3cc(C)on3)C2c2ccccc2OC)cc1 (centres undefined)
    -13.7%	-5.8%
COc1ccc(C(=O)Nc2nc3n(n2)C(c2ccc(Cl)cc2)C=C(c2ccccc2)N3)cc1OC (centres undefined)
    -5.7%	-11.7%
CC(=O)NC(Cc1ccccc1F)C(=O)NC1CCN(C(=O)Nc2ccc(C)cc2)CC1 (centres undefined)
    -12.3%	1.8%
O=C(Nc1ccnn1C1CCN(C(=O)c2cccc(Cl)c2)CC1)C1CCOC1 (centres undefined)
    i	-0.3%
CCCCCN1N=C(C)CC1=O
    i	-5.3%
O=[N+]([O-])c1cccnc1Oc1ccc(F)cc1F
    i	-8.3%
CN(Cc1ccccc1)C(=O)c1cccc(C(=O)N(C)Cc2ccccc2)c1
    i	-8.8%
CC(=O)c1cccc(Nc2c3c(nc4nc(-c5cccs5)nn24)CCCC3)c1
    -18.2%	-12.7%
N/C(=N/[N+](=O)[O-])N1CCN(C(=O)c2ccc(Cl)cc2)CC1
    i	-9.5%
Cc1cccc(Cn2c(-c3cccc(Br)c3)nc3ccccc32)c1
    -8.6%	-10.9%
Cc1sc2nc(CSCC(=O)Nc3ccc(OC(F)F)cc3)[nH]c(=O)c2c1C
    6.6%	2.3%
COc1ccc(OC)c(NC(=O)CN2C(=O)NC3(CCOc4ccccc43)C2=O)c1 (centres undefined)
    -10.5%	0.1%
Cc1[nH]ncc1Nc1ccccc1C(C)C
    12.6%	0.6%
Cc1cc(C)nc(SCc2nnc(SCC(=O)Nc3nc(-c4ccccc4)cs3)n2-c2ccccc2)n1
    -24.2%	-22.8%
CCOC(=O)C1=C(c2ccccc2)NC(=O)NC1c1cc(OCC)c(O)c([N+](=O)[O-])c1 (centres undefined)
    i	3.3%
S=c1[nH]ccn1CCc1ccccc1
    -26.0%	-0.3%

The list goes on.
Every second line gives: VACV mCherry inh	Vaccinia Venus
CCCCCCCCCCCCCCCC(=O)OCC(COP(=O)(O)O)OC(=O)CCCCCCCCCCCCCCC (centres undefined)
    -14.7%[3.33 µM]	-6.4%[3.33 µM]
Cc1cc(C(=O)CSc2ncnc3ccccc23)c(C)n1C1CC1
    i	-11.9%
Cn1cc([N+](=O)[O-])c(C(=O)n2cccn2)n1
    -12.1%	-11.7%
COc1ccc(Nc2nc(N)nc(CN3CCN(c4ccc(F)cc4)CC3)n2)cc1
    -29.5%	?
O=C(O)c1cccc(CSc2n[nH]c(-c3ccc(Cl)cc3Cl)n2)c1
    -7.3%	-3.9%
CCOc1ccc(NC(=O)COC(=O)c2n[nH]c3ccccc23)cc1
    -0.6%	1.1%
Cc1ccc2c(c1)N(CC(=O)N1CCN(C3CCCCC3)CC1)C(=O)CO2
    i	0.8%
COc1cc(CN2CCN(Cc3ccco3)CC2)cc(OC)c1
    -10.2%	9.5%
COc1ccc(-c2nc3nc(C)cc(N4CCN(c5cccc(C(F)(F)F)c5)CC4)n3n2)cc1
    -17.1%	-14.3%
O=C(Cn1cc(COc2ccc(C(=O)c3ccccc3)cc2)nn1)c1ccc(O)cc1
    i	-14.8%
COC(=O)c1cccc(N(CC(=O)NC2CCCCC2)C(=O)CNC(=O)c2cccs2)c1
    2.3%	-1.2%
CC(C)[C@H](N)C(=O)NC[C@H]1O[C@@H](n2cnc3c(N)ncnc32)[C@H](O)[C@@H]1O
    i	-2.7%
COc1cc(NC(=O)Cn2cnc(S(=O)(=O)N3CCc4ccccc43)c2)cc(OC)c1OC
    -3.8%	-1.6%
C[C@@H](c1ccccc1)N1C[C@H]2CCCN2c2cc(Br)ccc2S1(=O)=O
    i	-24.6%
Cc1ccc(NC(=S)Nc2cc(-c3ccccc3)[nH]n2)cc1Cl
    -20.9%	-9.8%
C/C=C/c1ccc(OCC(=O)OCC(=O)NC2CC2)c(OC)c1
    ?	-5.5%
CCCCCC(=O)Nc1cccc(C2=NOC3(C2)C[C@H](C(N)=O)N(C(=O)c2ccccc2C(=O)c2ccccc2)C3)c1 (some centres undefined)
    ?	-14.7%
CC1=C/C(=N\NC(=S)NCCc2ccccc2)CC(C)(C)C1
    -17.5%	-13.7%
CCCC(=O)NC(c1ccc(OC)c(OC)c1)c1cc(Cl)c2cccnc2c1O (centres undefined)
    12.6µM*	?
CC(=O)N1CCc2c(sc(NC(=O)c3ccc4c(c3)OCCO4)c2C#N)C1
    ?	-14.8%

Continued:
Every second line gives: VACV mCherry inh	Vaccinia Venus
Cc1ccc(S(=O)(=O)c2nnn3c2nc(N2CCCCC2)c2sccc23)cc1
    ?	?
O=C(CSc1ccc(-c2cccs2)nn1)Nc1ccccc1F
    -22.9%	-22.7%
Cc1ccc(Cl)cc1N1CCN(S(=O)(=O)c2ccc3c(c2)CC(C)N3C(=O)C2CCC2)CC1 (centres undefined)
    -13.7%	6.0%
O=C(C[n+]1ccccc1)N1c2ccccc2Sc2ccccc21
    4.3%	8.1%
CCc1ccc(C(C)NC(=O)c2ncn[nH]2)cc1 (centres undefined)
    -9.2%	-13.1%
CCN(CC)C(=O)Cn1cnc([N+](=O)[O-])n1
    i	-10.7%
CN(C)c1ccc(O)c2c1C[C@H]1C[C@H]3[C@H](N(C)C)C(=O)C(C(N)=O)=C(O)[C@@]3(O)C(=O)C1=C2O
    i	-13.0%
O=C1NCCCC1C(=O)N/N=C/c1cccc(Cl)c1 (centres undefined)
    -2.1%	0.2%
Cc1nc(SCC(=O)N2CCN(C(=O)c3ccco3)CC2)c2c(C)c(C)sc2n1
    -6.3%	-11.7%
CC(=O)Nc1cccc(NC(=O)c2ccccc2Cl)c1
    18.1%	-7.9%
O=C(CN1C(=O)/C(=C\c2ccc(F)cc2)Oc2ccccc21)N1CCN(c2ccccn2)CC1
    -0.5%	-10.1%
COc1ccc(/C=C2\C=Cc3ccccc32)cc1OC
    3.3%	-11.8%
COc1ccc(CNC(=O)C[C@H]2C[C@H](C(=O)N3CCOCC3)[C@@]3(CCC4CCCC4)c4[nH]c5cc(CCC(=O)N(C)C)ccc5c4CCN3C2=O)cc1OC
    i	0.0%
Cc1cc(C)cc(NC(=O)CSc2nncn2-c2ccccn2)c1
    i	-0.3%
CC(C)Oc1ccc(S(=O)(=O)N2CCCCC2)cc1NC(=O)C1=NN(c2ccccc2)C(=O)CC1
    -23.3%	-11.8%
O=C1[C@@H](Oc2ccccc2)[C@@H](c2cccnc2)N1c1ccccc1
    i	-21.1%
Cn1c(CN2CCCC2)nc2cc(NC(=O)COc3ccc([N+](=O)[O-])cc3)ccc21
    ?	-19.2%
COc1ccc(NC(=O)c2oc3ccccc3c2NC(=O)Cc2coc3cc(C)ccc23)cc1
    -14.6%	-22.2%
COc1ccc(CNC(=O)C2CCCN(S(=O)(=O)c3ccc(Br)s3)C2)cc1 (centres undefined)
    ?	?
Cc1ccc(OCCOC(=O)CCc2nc3ccccc3c(=O)[nH]2)cc1
    -0.3%	0.2%

Next part (four carried over from the part before).
Every second line gives: VACV mCherry inh	Vaccinia Venus
Cn1c(CN2CCCC2)nc2cc(NC(=O)COc3ccc([N+](=O)[O-])cc3)ccc21
    ?	-19.2%
COc1ccc(NC(=O)c2oc3ccccc3c2NC(=O)Cc2coc3cc(C)ccc23)cc1
    -14.6%	-22.2%
COc1ccc(CNC(=O)C2CCCN(S(=O)(=O)c3ccc(Br)s3)C2)cc1 (centres undefined)
    ?	?
Cc1ccc(OCCOC(=O)CCc2nc3ccccc3c(=O)[nH]2)cc1
    -0.3%	0.2%
COc1ccc(NC(=O)CCn2cnc3onc(-c4ccc(F)cc4)c3c2=O)cc1OC
    ?	?
CCN(C(=O)CSc1nc2ccccc2o1)c1c(N)n(Cc2ccccc2)c(=O)[nH]c1=O
    i	-14.4%
Cc1ccc(C(=O)NCC(=O)OCc2cccc(Br)c2)cc1
    -7.6%	-6.8%
Cc1c(NC(=O)/C(C#N)=C/c2ccc(-c3cc(Cl)ccc3Cl)o2)c(=O)n(-c2ccccc2)n1C
    -16.0%	?
